Assay outcomes (PubChem)
GLA inh pH 4.5: blocks human alpha-galactosidase A at pH 4.5. P06280. purified enzyme, 4-MU-alpha-Gal fluorescence, pH 4.5. activity change, negative = inhibition, % at 105 µM. 230,000 tested, under 10 active. AID 1467; inconclusive = small, poorly fitted or top-dose-only inhibition, or a rising curve; inactive = flat fitted curve, though single readings scatter; no compound was filed as active;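 note: 0% = full activity with enzyme and -100% = basal without enzyme; dose as in the result columns while the protocol names 77 µM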
Target sequence (P06280 whole entry, looked up): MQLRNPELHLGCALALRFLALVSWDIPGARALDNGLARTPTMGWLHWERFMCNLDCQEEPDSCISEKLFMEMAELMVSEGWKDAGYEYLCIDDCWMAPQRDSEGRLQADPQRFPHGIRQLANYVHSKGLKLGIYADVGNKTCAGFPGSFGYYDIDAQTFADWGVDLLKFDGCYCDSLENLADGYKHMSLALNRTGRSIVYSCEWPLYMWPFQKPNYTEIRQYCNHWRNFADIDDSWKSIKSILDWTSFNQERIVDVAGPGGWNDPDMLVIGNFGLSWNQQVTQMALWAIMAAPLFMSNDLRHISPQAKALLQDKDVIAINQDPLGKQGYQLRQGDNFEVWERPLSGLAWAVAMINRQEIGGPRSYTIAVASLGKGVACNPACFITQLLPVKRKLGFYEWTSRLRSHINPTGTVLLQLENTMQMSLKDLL
Rango dissoc inh: inhibitors of RanGTP-induced Rango-importin beta complex dissociation; Potency, µM (top dose mostly 46.1 µM), without a hit: at the top dose activity change, negative = inhibition; hit rate 0.071% among 340,000; Biochemical FRET Rango-importin beta, RanGTP-induced dissociation; O95149+P62826; active means falling FRET ratio curve, often poorly fitted, with flat reads before Ran was added; inconclusive means other falling curves, or compound fluorescence or quenching; inactive means flat or rising ratio curve;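 note: potency is the fitted concentration of half-maximal effect; % of control where 0% means no effect; nearly all actives have a fitted effect of over 45% in size; -100% = wells without RanGTP and RCC1; the record marks most hits as doubtful in a second field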
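Compounds preincubate 5 min with complex of recombinant Rango and importin beta in PBS with 1 mM DTT. Ran (0.6 uM) loaded with 2 mM GTP plus 0.2 uM RCC1 starts dissociation; FRET is recorded 45 min later.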
Rango-impB inh: Rango-importin beta binding inhibition; Rango CFP/YFP FRET sensor + importin beta, 45 min; Potency, µM (highest dose often 92.2 µM), inactives show top-dose inhibition of complex formation; hit rate 0.031% among 340,000; AID 540263; active = rising FRET ratio curve, often small or poorly fitted; inconclusive = mostly compound fluorescence or quenching in the first reads; inactive = flat curves in all reads;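 note: potency is the fitted concentration of half-maximal effect; 0% = DMSO wells and 100% = buffer wells lacking importin beta; nearly all actives have a fitted effect of over 15% in size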
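FRET biosensor Rango (snurportin 1 IBB between N-terminal EYFP and C-terminal Cerulean), 50 nM in PBS/1 mM DTT/0.02% Tween-20/0.1% BSA, preincubated 5 min RT with compound; 0.125 microM importin beta added, 45 min RT, CFP/YFP FRET ratio read.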
miR-21 FLuc: raises the signal of a miR-21 reporter; 340,000 tested, under 10 active; Potency, µM (highest dose often 38.3 µM), inactives show top-dose reporter change, positive = more light; HeLa miR-21 FLuc reporter, luciferase, 48 h; active = well fitted rising curve with a large enough effect; inconclusive = small, poorly fitted or top-dose-only effect; inactive = no such curve, though single readings can be large or run the other way;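 note: % of control where 0% means no effect; miR-21 action dims this reporter so a rising signal means less miR-21 action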
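Luminescence from a firefly luciferase reporter carrying a miR-21 binding site downstream, stably expressed under a CMV promoter in HeLa cells that make miR-21 endogenously, reports miRNA modulation after 48 h compound exposure up to approximately 40uM final.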
The depositor's hits bear a star; ? = inconclusive; · = not tested or not shown. The list is partial. The share of hits here may be higher or lower than overall.

structure	GLA inh pH 4.5	Rango dissoc inh	Rango-impB inh	miR-21 FLuc
COc1cccc(N2CCN(C(=O)c3ccc(CS(=O)c4ccc(Cl)cc4)o3)CC2)c1 (stereo not given)	·	-9%	-0.6%	24%
COCCC(=O)N1CCc2c([nH]c3ccccc23)C1C(C)(C)C (stereo not given)	-2	4%	-0.9%	-3%
COc1cc2cc(CN(Cc3nnnn3C3CCCC3)C3CCCC3)c(=O)[nH]c2cc1OC	5	·	·	-5%
NS(=O)(=O)c1ccc(NS(=O)(=O)c2ccc(C3CNC(=O)C3)cc2)cc1 (stereo not given)	·	6%	3.4%	5%
COc1ccccc1NC(=O)CN1CCC(c2nc3ccccc3[nH]2)CC1	-4	-4%	1.4%	0%
c1ccc2c(c1)ccc1nnnn12	·	-12%	2.2%	·
O=C(NC(=S)Nc1c(Cl)ccc2nsnc12)c1ccccc1F	·	-10%	-0.8%	-9%
O=C(NC1CCN(Cc2cccc([N+](=O)[O-])c2)CC1)c1ccccc1	·	9%	2.2%	-3%
COc1cnc(-c2ccccc2)nc1Sc1ccccc1	-5	-5%	-0.5%	6%
COc1ccc(S(=O)(=O)N(CC(=O)NCc2ccco2)c2ccc(F)cc2)cc1	·	-8%	4.3%	5%

Entries of single compounds, looked up by structure. Values in the order: GLA inh pH 4.5	Rango dissoc inh	Rango-impB inh	miR-21 FLuc
Entry for `O=C(NC(=S)Nc1c(Cl)ccc2nsnc12)c1ccccc1F` : ·	-10%	-0.8%	-9%
Entry for `COc1ccccc1NC(=O)CN1CCC(c2nc3ccccc3[nH]2)CC1` : -4	-4%	1.4%	0%
Entry for `O=C(NC1CCN(Cc2cccc([N+](=O)[O-])c2)CC1)c1ccccc1` : ·	9%	2.2%	-3%

Next part:
structure	GLA inh pH 4.5	Rango dissoc inh	Rango-impB inh	miR-21 FLuc
COc1ccc(NC(=O)COC(=O)CC2CCCC2)cc1Cl	·	1%	-3.0%	·
Cc1cccc(NC(=O)CSc2nc3[nH]c(=O)cc(O)c3s2)c1	·	-23%	-3.1%	·
CC(=O)N1N=C(c2cccc([N+](=O)[O-])c2)OC1c1cccc(Br)c1 (stereo not given)	2	2%	?	3%
CCCc1nc2ccccc2c(C(=O)OCC(=O)N2CCc3ccccc32)c1CC	-4	-2%	0.3%	-1%
Cc1cc(N2CCN(C)CC2)nc2ccc(NC(=S)N3CCN(c4ccccn4)CC3)cc12	7	0%	-0.8%	0%
O=C1C=C(c2ccc(Oc3ccccc3)cc2)C[C@@H](c2ccc(Cl)cc2)C1	·	9%	3.8%	·
COc1ccc(-c2csc(Nc3ccccn3)n2)cc1OC	·	-6%	0.1%	-19%
C=CCNc1nc(-c2ccc3c(c2)OCCO3)cs1	·	2%	4.5%	·
Cc1cc(C)c(NC(=O)COC(=O)c2cccc3c2C(=O)c2ccccc2C3=O)c(C)c1	-5	19%	4.3%	-17%
CC(C(=O)Nc1ccc(Cl)cc1)N(C)Cc1cccs1 (stereo not given)	·	-1%	-1.5%	0%
C/C(=N\NC(=O)CNC(=O)C(c1ccccc1)c1ccccc1)c1ccc(C(C)(C)C)cc1	-3	2%	0.0%	-6%
COc1ccc(C(=O)CSc2nnc(CNC(=O)c3ccco3)n2C)cc1OC	·	-10%	-0.9%	-2%
COCCN1Cc2cccc(C(=O)Nc3ccc(S(=O)(=O)N4CCCCCC4)cc3)c2C1=O	-6	11%	-4.4%	-4%
CC(C)CC(COCc1ccc(Cl)cc1)N1CCN(C(=O)c2ccc(C(F)(F)F)cc2)CCC1=O (stereo not given)	4	14%	0.2%	7%
CCOc1ccccc1/C=N/OCC(=O)NCc1ccc(F)cc1	-4	2%	-2.8%	2%
CC1=C(C(=O)Nc2ccc(F)c(F)c2)C(c2cccs2)NC(=S)N1 (stereo not given)	-5	0%	-5.7%	1%
C[C@@H](C(=O)NCc1c(F)cccc1Cl)N1C(=O)N2CCc3c([nH]c4ccccc34)[C@@]2(C)C1=O	·	1%	-1.7%	11%
COC(=O)c1ccc(C)c(NS(=O)(=O)c2ccc3c(c2)OCCO3)c1	4	13%	1.0%	20%
Cn1nnc2cc(C(=O)Nc3ccccc3F)ccc21	·	6%	1.6%	-49%
Cc1cc(NS(=O)(=O)c2ccc(NC(=O)c3cnc4sccn4c3=O)cc2)nc(C)n1	7	-4%	-2.1%	-2%
CC/C(=N/NC(=O)CNc1ccc(Cl)cc1C)c1ccccc1	5	2%	-0.3%	0%
CCCC(O)(CCC)C(=O)NN1CCCCC1	14	8%	-2.4%	-3%
CCc1nc(Nc2ccccc2F)c2oc3ccccc3c2n1	·	3%	4.1%	-16%
CC(=O)c1c(-c2ccccc2)c2cc(Cl)ccc2[nH]c1=O	-7	4%	-1.2%	23%
COC(=O)c1ccc(N2CCc3ccccc32)c([N+](=O)[O-])c1	·	-7%	-0.9%	-8%
CCCCn1c(N)c(N(CCC(C)C)C(=O)c2ccccc2-n2cnnn2)c(=O)[nH]c1=O	·	5%	-2.9%	·
Cc1ccc(C)c(C(=O)CN2Cc3ccccc3C2=O)c1	-5	10%	1.3%	-25%
CC(=O)Nc1ccc(NC(=O)C2CCN(C(=O)C3CC(=O)N(c4ccc(C)cc4)C3)CC2)cc1 (stereo not given)	·	2%	0.9%	-2%
COC(=O)C1=CNC=C(C(=O)OC)C1c1ccccc1Cl	?	?	?	1%
CN(CCC#N)CC(=O)Nc1ccc(NC(=O)CN(C)CCC#N)cc1	-3	3%	-2.4%	-2%
CC(=O)NC(Cc1c[nH]c2ccccc12)C(=O)OCC(=O)N1CCN(S(=O)(=O)c2ccc(Cl)cc2)CC1 (stereo not given)	·	-9%	-0.9%	·
NC(=O)c1cccnc1Oc1ccc(Cl)cc1	7	7%	-0.2%	-13%
CCOC(=O)C(=O)Nc1ccc([N+](=O)[O-])cc1OC	-6	-13%	-2.4%	0%
O=C(CSc1nnc(Cc2ccccc2)c(=O)[nH]1)Nc1ccccc1	·	-2%	0.0%	·
Cn1c(SCC(=O)NCc2ccco2)nnc1-c1ccc(S(=O)(=O)N2CCOCC2)cc1	-5	-8%	0.2%	-1%
CCOC(=O)N1CCC(c2cc(=O)n3[nH]c(C)c(-c4ccc(F)cc4)c3n2)CC1	2	4%	-0.2%	24%
CN(C(=O)CSc1nc2ccccc2o1)C1CCCCC1	·	0%	-10%	·
CCOc1ccc(/C(O)=C2/C(=O)C(=O)N(c3cc(C)on3)C2c2ccc(C(=O)OC)cc2)cc1 (stereo not given)	-8	-17%	-4.2%	-11%
CC(=O)NCCC(=O)Nc1cccc(S(=O)(=O)N(C)c2ccccc2)c1	-3	10%	-3.7%	1%
CC1(C)CC(=O)c2c(n(S(=O)(=O)c3ccccc3)c3ccc(NS(=O)(=O)c4ccccc4)cc23)C1	-13	5%	1.8%	3%
Cc1ccccc1NC(=S)NCc1ccc2c(c1)OCO2	2	-4%	2.0%	-8%
COc1cc2c(cc1OC)C(c1ccc3c(c1)OCO3)C1=C(CC(C)(C)CC1=O)N2 (stereo not given)	2	-6%	-3.1%	-9%
Cc1cc(C)c([N+](=O)[O-])cc1NC(=O)CCSc1ccccc1Cl	-6	3%	4.3%	-1%
O=C(C1CCN(S(=O)(=O)c2ccccc2F)CC1)N1CCCC1	·	-7%	2.3%	·
Cc1ccc(Cc2cnc(N3C(=N)SC(C)C3=O)s2)cc1 (stereo not given)	0	1%	3.1%	0%
O=C(NC1CCCc2c1cnn2-c1ccc(F)cc1F)c1cnccn1 (stereo not given)	3	-14%	4.3%	1%
C=CCOC(=O)/C(=C/c1cccnc1)NC(=O)c1ccccc1	0	48%	-1.3%	-2%
N#Cc1c2c(nc(N)c1-c1ccccc1)CCCCC2	-3	2%	-2.7%	-20%
CC1(C)CC(=O)C2=C(C1)OC(N)=C(C#N)C2c1ccccc1[N+](=O)[O-] (stereo not given)	2	?	?	0%
Cc1cccc(C)c1NC(=O)CNc1ncnc2sc(C)c(C)c12	0	20%	-1.8%	0%

(cont.)
structure	GLA inh pH 4.5	Rango dissoc inh	Rango-impB inh	miR-21 FLuc
Cc1nn(-c2ccccc2)c(Cl)c1C(=O)NNC(=O)c1ccncc1	·	8%	-0.2%	·
Cc1ccc(-c2nnc(SCC(=O)Nc3nc4c(s3)CCCC4)n2C)cc1	3	-1%	0.2%	-2%
O=C(NNC(=S)NC(=O)c1ccccc1Cl)c1cccc([N+](=O)[O-])c1	·	5%	-0.5%	-10%
Cc1ccc(Sc2cnc3ccccc3n2)cc1	5	-7%	?	-51%
Cc1cc(C)c2c(N=CN(C)C)c(C(=O)N3CCN(c4ncccn4)CC3)sc2n1	-9	-1%	-2.6%	-1%
COc1ccc(OCc2nnc(SCC(=O)Nc3ccccc3F)o2)cc1	·	3%	2.5%	-5%
Cc1cc(C(=O)N/N=C/c2ccc([N+](=O)[O-])cc2)c2ccccc2n1	-12	-1%	-3.0%	?
Cc1cccc(NC(=O)c2ccc(S(=O)(=O)N3CCOCC3)cc2)c1C	·	-13%	?	-2%
CSCCC(NC(=O)C1CCC(C)CC1)C(=O)NCCN1CCC(C)CC1 (stereo not given)	3	4%	-1.3%	-2%
NC(=O)CN1C(=O)C(=O)N(Cc2ccccc2Cl)C1=O	·	1%	0.4%	-4%
O=C1N(c2cccc(Cl)c2)C(c2ccccc2)N2CCCN12 (stereo not given)	-1	1%	-3.3%	-10%
O=S(=O)(N1CCOCC1)N1CCCN(S(=O)(=O)N2CCOCC2)CC1	-14	0%	0.0%	2%
CC(=O)c1ccccc1NC(=O)COC(=O)C1=NN(c2ccccc2)C(=O)CC1	·	-17%	-3.9%	·
COC(=O)c1ccc(N2CCC(c3cc(-c4ccc(OC)cc4)n[nH]3)CC2)c([N+](=O)[O-])c1	-4	1%	-0.4%	14%
CC(=O)Nc1ccc(S(=O)(=O)N2CCN(C)CC2)cc1	4	-3%	-0.5%	-3%
COc1cc(C2NC(=O)CCC2[N+](=O)[O-])cc(OC)c1OC (stereo not given)	·	-8%	0.1%	-1%
CC(=O)C1C(c2ccc(Br)cc2)C2C(C)=NN=C2CC1(C)O (stereo not given)	-4	32%	-0.3%	0%
COc1cc(CCC(=O)Nc2ccc(Br)c(C(F)(F)F)c2)cc(OC)c1OC	-8	2%	0.3%	4%
Cc1ccc(CCNC(=O)C2CCC(=O)N2C2CCCC2)cc1 (stereo not given)	9	-18%	-3.6%	-8%
NC(=O)[C@@H]1CCCNc2c(F)cc([N+](=O)[O-])cc2C(=O)N[C@@H](CO)C(=O)NCC(=O)N1	-3	-6%	-4.8%	-7%
N#CCC(=O)Nc1nc(-c2ccc3c(c2)OCCO3)cs1	0	?	?	-45%
N=c1n(CC(=O)c2cccs2)c2ccccc2n1Cc1ccccc1	-1	-9%	1.3%	22%
Cc1ccc(S(=O)(=O)N(Cc2nccn2C)C(C)C)cc1	-2	10%	3.1%	-2%
N#Cc1c(-c2ccccc2)cc(-c2cccs2)nc1SCC(=O)O	·	-3%	2.4%	-12%
COc1cc(NS(=O)(=O)c2ccc3c(c2)NC(=O)CO3)cc(OC)c1	·	7%	-0.1%	4%
CC1(c2ccc(Cl)cc2)NC(=O)N(CC(=O)c2ccc3c(c2)OCO3)C1=O (stereo not given)	·	6%	4.3%	-14%
c1ccc(Oc2ccc(-n3cnnn3)cc2)cc1	-2	-12%	-0.9%	-15%
Cc1cccc(Nc2ncnc3c2cnn3Cc2ccccc2)c1	3	9%	5.7%	-11%
O=C(COc1ccccc1)Nc1nc(-c2ccc(S(=O)(=O)N3CCOCC3)cc2)cs1	-6	3%	4.9%	20%
O=C(c1ccc(OC2CCN(Cc3ccccc3O)CC2)cc1)N1CCCCC1	·	-17%	1.1%	0%
CCN1CCN(C(=O)Cn2ncc3c([nH]c4ccccc43)c2=O)CC1	·	-6%	-0.5%	0%
